Screens (PubChem BioAssay)
VDR inh – inhibitors of human vitamin D receptor; VDR-SRC2-3 peptide fluorescence polarization, 2 h; hit rate 0.93% among 400,000; AID 504847; Potency, µM, for inactives: max response, negative = inhibition, usual class: inhibitors; active means well fitted inhibition curve with a large enough effect; inconclusive means small, poorly fitted or top-dose-only effect, or another doubt; inactive means no such curve, though single readings can be large or run the other way; further: series mostly up to about 120 µM
Target sequence (P11473 whole entry, looked up): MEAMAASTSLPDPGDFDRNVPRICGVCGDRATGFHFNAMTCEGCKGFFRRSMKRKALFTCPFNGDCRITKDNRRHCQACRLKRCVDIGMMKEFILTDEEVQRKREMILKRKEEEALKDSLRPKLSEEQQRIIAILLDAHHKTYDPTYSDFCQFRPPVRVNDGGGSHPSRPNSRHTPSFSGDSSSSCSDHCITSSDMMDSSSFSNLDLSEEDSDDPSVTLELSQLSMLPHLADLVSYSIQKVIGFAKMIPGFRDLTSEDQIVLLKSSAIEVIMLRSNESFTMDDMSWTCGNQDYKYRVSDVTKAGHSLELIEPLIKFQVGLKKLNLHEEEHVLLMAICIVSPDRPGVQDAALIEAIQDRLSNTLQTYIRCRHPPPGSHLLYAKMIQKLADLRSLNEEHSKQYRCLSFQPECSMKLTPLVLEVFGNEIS
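The screen uses fluorescence polarization to detect compounds that interfere with recruitment of the SRC2-3 coactivator peptide to VDR; plates are read after 2 h at room temperature.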
An asterisk follows results filed as active; ? = inconclusive; [ ] = another dose, or the depositor's remark. On the % scale 0 is the no-effect control and ±100 the full control effect; potency means the concentration at half of the fitted maximal effect. Only part of the results is shown; count on the stated rates, not on these rows.

#	mol	VDR inh
1	C[C@H](CO)N1C[C@H](C)[C@@H](CN(C)S(=O)(=O)c2ccccc2)Oc2c(NC(=O)Nc3ccc(C(F)(F)F)cc3)cccc2C1=O	-4%
2	CCSc1ccc([C@@H]2[C@H]3C(=O)N(CC)C(=O)[C@H]3[C@]3(C(=O)OC)CCCCN23)cc1	-12%
3	COc1ccc(C(=O)Nc2ccc(-c3nc4ncccc4o3)cc2)cc1	-24%
4	NC(=O)c1ccsc1NC(=O)COC(=O)c1c(F)cccc1Cl	-17%
5	O=Cc1ccc(OCC(=O)N2CCc3ccccc32)c(Br)c1	1%
6	O=C(Nc1ccc2c(c1)OCCO2)c1cccs1	2%
7	O=C(NNC(=O)[C@@H]1CCCC[C@@H]1C(=O)O)c1cccs1	-22%
8	CCOc1ccc(NC(c2ccc(Cl)cc2)c2nnc(-c3cccc(F)c3)o2)cc1 (stereo not drawn)	-5%
9	COc1ccc(/C=N\Nc2ccccn2)c(OC)c1	-1%
10	COCC(=O)n1nc(-c2ccccc2)nc1NCc1ccc(N(C)C)cc1	4%
11	CCOC(=O)c1c(NC(=O)c2ccc(S(=O)(=O)N(CC(C)C)CC(C)C)cc2)sc2c1CCN(CC)C2	14%
12	CCCCOC(=O)Nc1cccc(Cl)c1C	-6%

Next records.
#	mol	VDR inh
13	CCCc1cnc2c(c1SCC(=O)N(C)c1ccccc1)c(=O)n(C)c(=O)n2C	8%
14	Cc1ccc(NC(=O)Cn2c(=O)cnc3ccccc32)cc1S(=O)(=O)N(C)C	-16%
15	CCOC(=O)c1c(C)cc(O)c(C)c1O	-3%
16	NC(=O)C1CC2(NC(=O)NC2=O)c2cc(F)ccc2O1 (stereo not drawn)	12%
17	N#C/C(=C1/CCCCCN1)c1nc2ccccc2s1	10%
18	O=C(NCCC1CCCCN1S(=O)(=O)c1ccc(Cl)cc1)C(=O)NCc1ccco1 (stereo not drawn)	-4%
19	Cn1c(SCC(=O)C(C)(C)C)nnc1-c1cccnc1	-7%
20	C=C(C)CNC(=S)N/N=C/c1c(F)cccc1F	18%
21	CCOC(=O)c1[nH]ncc1CN1CCN(Cc2ccc(C)cc2)C(CCO)C1 (stereo not drawn)	31%[activator]
22	c1ccc2c(c1)CCC[C@@H]2C1=NCCN1	1%
23	CCOC(=O)C1CCCN(S(=O)(=O)Cc2ccc(Cl)cc2)C1 (stereo not drawn)	-26%
24	CCONc1ncnc2nonc12	-5%

New compounds follow
#	mol	VDR inh
25	CCCCOc1ccc(C(=O)N(CC)CC(=O)NCc2cccs2)cc1	-8%
26	NC(=O)CC1C(=O)N(c2ccc(F)cc2)C(=O)N1NC(=O)CCc1ccccc1 (stereo not drawn)	1%
27	O=C(Cc1ccsc1)N1CCN(S(=O)(=O)c2cc(C(F)(F)F)cc(C(F)(F)F)c2)CC1	-10%
28	Cc1ccccc1C(=O)Oc1cc(N)n(S(C)(=O)=O)n1	3%
29	CSc1ccccc1C(=O)NCc1ccc2c(c1)OCO2	-17%
30	O=C(Nc1ccc(C(F)(F)F)cc1)C1CCCN1S(=O)(=O)c1cccc2cccnc12 (stereo not drawn)	-3%
31	COC(=O)CCCCCCCCC(=O)Nc1nc2ccccc2s1	-7%
32	CC(=O)c1c(O)cc(C)n(-c2ccc(F)cc2)c1=O	-3%
33	Cc1ccc(C(=O)Nc2ccccc2SCC2CSc3nc4ccccc4c(=O)n32)cc1 (stereo not drawn)	-4%
34	COc1ccc(-c2oc3cccnc3c2-c2ccc(OC)nc2)cc1	-24%
35	COC(=O)C1(O)CC(C(C)C)=NN1C(=O)c1ccccc1 (stereo not drawn)	5%
36	O=S(=O)(c1ccc(-c2ccno2)s1)N1CCCCC1	9%

Other results:
#	mol	VDR inh
37	Cc1ccc2c(c1)[C@H]1[C@H](CO2)[C@H](c2ccccc2)[C@]2(C)C(=O)N(CC3CCCO3)CC(=O)N12 (stereo partly drawn)	0%
38	COc1ccc(-c2nnc(NC(=O)c3ccc([N+](=O)[O-])o3)o2)c(OC)c1	-10%
39	COC(=O)c1nnn(-c2ccsc2C(=O)OC)c1C(=O)OC	-4%
40	CCc1ccccc1NC(=O)CN1CCN(C(=O)CNC(=O)Cc2cccc3ccccc23)CC1	-5%
41	O=S(=O)(c1ccccc1)N1N=C(c2ccccc2)CC1c1ccccc1F (stereo not drawn)	-8%
42	CC1(C)OC(c2ccccc2)=C/C(=C/C=N/NC(=O)c2ccncc2)O1	-6%
43	COc1ccccc1N1CCN(c2c3c(nc4nncn24)CCC3)CC1	3%
44	Cc1ccccc1NC(=O)C(C)Sc1nnc(-c2ccncc2)n1CC1CCCO1 (stereo not drawn)	15%
45	CCCCCCSc1cc(-c2nc3cc(C)ccn3c2NCCCC)ccc1OC	-11%
46	Cc1ccc(NC(=O)CN(C)C(=O)C(C)OC(=O)c2ccccc2NCCO)cc1 (stereo not drawn)	10%
47	COC(=O)c1sccc1NC(=O)c1ccc(Cl)cc1	17%
48	CC1(C)CCC(=O)N2CC[C@H]3C[C@H](OC(=O)Nc4ccc5c(c4)OCO5)C[C@@H]1[C@H]32	-6%

Brought forward from above: two compounds; new compounds follow.
#	mol	VDR inh
47	COC(=O)c1sccc1NC(=O)c1ccc(Cl)cc1	17%
48	CC1(C)CCC(=O)N2CC[C@H]3C[C@H](OC(=O)Nc4ccc5c(c4)OCO5)C[C@@H]1[C@H]32	-6%
49	CCOc1ccc(Br)cc1CNCCN1CCOCC1	3%
50	N#Cc1nc(-c2ccc(F)cc2)oc1NCCN1CCOCC1	-1%
51	C#CCOCCOCCOCCNc1nc(N2CCN(C(=O)CCCCCCCCCCNC(=O)Cn3cc(C[C@@H](C)O)nn3)CC2)nc(N2CCN(C(=O)CCCCCCCCCCNC(=O)[C@@H]([C@H](C)CC)n3cc(CCCCCN)nn3)CC2)n1	18%
52	COc1ccc(OC)c(-c2nnc(SCC(=O)NC3CCCCC3)o2)c1	3%
53	CCCCOc1ccccc1C(=O)NCC(=O)O	4%
54	Cc1cc(C(=O)NCCc2ccc(Cl)cc2)n(-c2ccccc2)n1	-2%
55	NNC(=O)CNC(c1ccccc1)c1cc(Br)ccc1NC(=O)CCN1CCOCC1 (stereo not drawn)	4%
56	CC(=O)c1ccc(-n2c(SCC(=O)c3c[nH]c4ccccc34)nc3ccccc3c2=O)cc1	-3%
57	O=C(O)c1ccc(S(=O)(=O)Cc2ccccc2)cc1	-13%
58	COc1cccc(/C=N/Nc2snc(SC)c2C#N)c1O	6%
59	CCCOc1ccc(-c2nc(-c3ccc([N+](=O)[O-])cc3)cs2)cc1	-9%
60	Cc1nc(NCCO)c2nnn(Cc3ccccc3F)c2n1	-2%

Additional records
#	mol	VDR inh
61	O=C(Nc1ccc(C(=O)N2CCCC2)cc1)c1ccc2c(c1)OCO2	-1%
62	Cc1cc(=O)n(-c2ccc3ccccc3n2)[nH]1	-3%
63	CCCc1cc(N2CCCC(C(=O)Nc3ccc(OC)cc3OC)C2)n2ncnc2n1 (stereo not drawn)	-2%
64	CC1CCC(NC(=O)CCNC(=O)c2ccccc2)CC1 (stereo not drawn)	-28%
65	O=C(CN1CCSc2ccccc21)N1CCCCC1	14%
66	Cc1cc(C)c2nc(SCC(=O)Nc3cc(C)on3)c(C)cc2c1	-3%
67	Cc1sc2nc(CSc3ccccc3)nc(N3CCOCC3)c2c1C	14%
68	COC(=O)c1cc2c(cc1[N+](=O)[O-])OCO2	-4%
69	Cc1onc(C(=O)NC(C)c2ccccc2)c1[N+](=O)[O-] (stereo not drawn)	6%
70	Cc1ccc([N+](=O)[O-])cc1NC(=O)C(C)N1CCCCC1 (stereo not drawn)	-1%
71	O=c1cc(CN2CCN(S(=O)(=O)c3ccccc3)CC2)nc2ccc(Cl)cn12	-6%
72	Cc1cc(C)nc(SCC(=O)OCC(=O)N(C)c2c(N)n(Cc3ccccc3)c(=O)[nH]c2=O)n1	18%

Remaining list, next part
#	mol	VDR inh
73	CC1c2[nH]c3ccccc3c2C[C@H]2C(=O)N(CCCO)CC(=O)N12 (stereo partly drawn)	-19%
74	COC(=O)CCC(=O)OC1(C)C(=O)C=C2C=C(C3CC3)N(CCN3CCOCC3)C=C2C1=O (stereo not drawn)	-4%
75	CCC(C)NC(=O)CCC(=O)Nc1ccc2nc(N3CCOCC3)cc(C)c2c1 (stereo not drawn)	-12%
76	O=C(CCCOc1ccc(Cl)cc1Cl)NCCCn1ccnc1	15%
77	CCNC(=S)Nc1cc2oc3ccccc3c2cc1OC	-25%
78	O=C(CSc1ncccn1)NCCc1ccccc1	1%
79	Cn1c(NCCc2ccccc2)cc(=O)n(C)c1=O	-3%
80	COc1cc(C(=O)Nc2ccccc2N2CCOCC2)ccc1OCc1c(C)noc1C	-3%
81	Cn1nc(C(C)(C)C)c(NC(=O)c2sccc2Cl)c1C(C)(C)C	10%
82	CC(=O)Nc1c2c(nn1-c1cccc(Cl)c1)CS(=O)(=O)C2	-6%
83	CN(C)C(=O)c1ccc2c(c1[N+](=O)[O-])C(=O)c1ccccc1C2=O	-14%
84	COc1cc(C(=O)N2CCC(c3ccncc3)CC2)cc(OC)c1OC	7%

Additional records follow:
#	mol	VDR inh
85	C(=C\n1nnc2ccccc21)/c1ccccn1	-6%
86	CCCN1CCN(S(=O)(=O)c2ccc(-c3cc(C)no3)s2)CC1	-4%
87	O=C(O)c1ccc(OCC(F)(F)F)nc1	-8%
88	CCC(=O)OCc1cc(=O)n2nc(C3CC3)sc2n1	10%
89	COc1ccc(-c2cc(-c3ccccc3)n3ncnc3n2)cc1	-5%
90	O=C(CCSCCc1ccccn1)Nc1ccccc1C(F)(F)F	6%
91	Fc1cc2[nH]c(=S)[nH]c2c(Br)c1N1CCSCC1	-14%
92	N/C(=N\OC(=O)Oc1ccccc1)c1cccc([N+](=O)[O-])c1	-29%
93	COc1cc(-c2nnc(COC(=O)CSCC(=O)Nc3cc(C)on3)o2)cc(OC)c1OC	-13%
94	OC(c1ccccc1)C(O)c1ccccc1 (stereo not drawn)	-22%
95	C=C(C)Cn1c(CCNC(=O)C(C)(C)C)nc2ccccc21	7%
96	O=C(NCCc1ccc(Cl)cc1)c1ccc2c(c1)N(Cc1ccccc1)CCS2	-14%

Later entries:
#	mol	VDR inh
97	Cc1nc2sc(C(c3ccco3)N3CCN(c4ccccc4)CC3)c(O)n2n1 (stereo not drawn)	-1%
98	Cc1ccccc1NC(=O)NCCCCc1ccccc1	-25%
99	Cc1c(OC(C)C(=O)NCc2ccccn2)ccc2c3c(c(=O)oc12)CCC3 (stereo not drawn)	?
100	O=C(CNC(=O)c1cccs1)Nc1ccncc1	-11%
101	C/C(=N/Oc1nc(C)cc(C)n1)c1ccccc1	2%
102	CCOc1ccc(Br)cc1S(=O)(=O)Nc1ccc(N2CCOCC2)cc1	10%
103	OCC1(Cc2ccc(F)cc2)CCCN(Cc2ccc(F)cc2Cl)C1 (stereo not drawn)	8%
104	O=C(CCC(=O)NC1CCCCCC1)Nc1nnc(C(F)(F)F)s1	-1%
105	O=C(Nc1ccn(-c2ccccc2)n1)c1ccccc1Br	0%
106	COc1ccc2c(c1)C(=NO)c1cc(OC)ccc1-2	-13%
107	COc1cccc(CC2CC(=O)N(CCc3ccc4c(c3)OCO4)C2=O)c1 (stereo not drawn)	6%
108	Cc1cc(/C=N/O)c(C)n1-c1ccccc1	-2%

(further entries)
#	mol	VDR inh
109	O=C(Nc1ccc2nc(SCC(=O)N3CCCC3)sc2c1)c1ccc(F)cc1	-1%
110	CN(C(=O)c1ccc(NC(=O)Cc2cccc(NC(=O)C3CCN(C(=O)C4CCCCC4)CC3)c2)cc1)C1CC1	7%
111	Cc1ccc(S(=O)(=O)NC(C)C(=O)OCC(=O)N(C)c2ccccc2)cc1 (stereo not drawn)	-2%
112	CC(=O)c1sc(Nc2nc(C)cc(C)n2)nc1C	-15%
113	CC(=O)NC(CC(=O)NCCN1C(=O)S/C(=C\c2ccccc2)C1=O)c1ccccc1 (stereo not drawn)	4%
114	COc1ccc(-c2noc(CSc3nnc(Cc4ccccc4)n3-c3ccc(Cl)cc3)n2)cc1	11%
115	CCOc1cccc(NC(=O)c2ccc(F)c(S(=O)(=O)N(CC)c3cccc(C)c3)c2)c1	-1%
116	Cc1ccc2[nH]c(-c3ccccc3)cc(=O)c2c1	17%
117	CC(C)c1nnc(NC(=O)CCC(=O)NC2CC2)s1	-5%
118	COc1ccc(N(C(=O)c2ccco2)C(C(=O)NC2CCCC2)c2ccc(N3CCOCC3)cc2)c(OC)c1 (stereo not drawn)	7%
119	O=C(Nc1nc(-c2ccc3c(c2)OCCO3)cs1)C1CCCC1	0%
120	Cc1nn(C)cc1-c1n[nH]c(=S)n1-c1ccc(Cl)cc1	-20%

(further entries)
#	mol	VDR inh
121	CC1Cc2ccccc2N1C(=S)Nc1ccc(S(N)(=O)=O)cc1 (stereo not drawn)	?
122	O=C(CN(CC1CCCO1)C(=O)CNS(=O)(=O)c1ccc(F)cc1)NCCc1ccccc1 (stereo not drawn)	12%
123	COc1ccc(NC(=O)CSc2nc3c(c(=O)n2-c2ccc(F)cc2)SCC3)c(OC)c1	-2%
124	FC(F)Sc1ccc(-n2c(-c3ccc(Cl)cc3)c[n+]3c2CCC3)cc1	-12%
125	CCOC(=O)C1=CN(CC)CCC1=O	-20%
126	Cc1ccc[n+](CC(=O)c2ccc(NC(=O)c3ccccc3)cc2)c1C	2%
127	CCN(CC(=O)Nc1c(F)cccc1F)C(=O)Cc1sc(C)nc1-c1ccc(F)cc1	-15%
128	CCON1C(=O)CN(C(=O)OC)C1c1ccc(Cl)cc1Cl (stereo not drawn)	9%
129	COc1cc2c(cc1OC)CN(C(=O)C1CCN(S(=O)(=O)c3ccccc3F)CC1)CC2	3%

5 entries drawn at random from those above, as already listed:
#	mol	VDR inh
116	Cc1ccc2[nH]c(-c3ccccc3)cc(=O)c2c1	17%
109	O=C(Nc1ccc2nc(SCC(=O)N3CCCC3)sc2c1)c1ccc(F)cc1	-1%
68	COC(=O)c1cc2c(cc1[N+](=O)[O-])OCO2	-4%
72	Cc1cc(C)nc(SCC(=O)OCC(=O)N(C)c2c(N)n(Cc3ccccc3)c(=O)[nH]c2=O)n1	18%
102	CCOc1ccc(Br)cc1S(=O)(=O)Nc1ccc(N2CCOCC2)cc1	10%
